Screening results: PubChem, several laboratories
T cruzi repl – T. cruzi replication inhibition; actives 1.4% (n = 300,000); T. cruzi beta-gal in NIH3T3, luminescence, 90 h; inhibition, % (concentration not given with the values);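 active = mean inhibition across valid replicates above about 55%, limit read from the data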;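 also: signal also drops with host cell toxicity which is not excluded here; 0% = plate median of DMSO wells and 100% = zero luminescence signal; higher percent means less beta-gal luminescence so fewer parasites; stock transfer was 50 nL into about 50 µL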
Bfl-1 A1 inh – inhibitors of the anti-apoptotic protein A1, read as caspase activation | caspase activation, % (no concentration beside the values) | actives 0.066% (n = 330,000) | MEF A1-2A-BIM cells, Caspase-Glo 3/7 luminescence, 3 h; percent of clofoctol response, vehicle zero;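 active = over half of replicate activation scores above 10%, or exactly half above 10 with the replicate mean above 10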;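 also: wells of about 30 µL received 50 nL stock; many hits fall short of the cut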
E coli growth – E. coli growth inhibition. AID 1053175. OD600 absorbance (no concentration beside the values). actives 0.21% (n = 330,000). Escherichia coli growth, OD600, 23 h; stronger effect = lower value;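 active = OD600 absorbance below the run mean of sample wells minus 3.6 SD, in any replicate, cut at about 0.56 in these data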;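 also: stock transfer was 300 nL into about 60 µL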
UCH37 DUB inh – blocks the human deubiquitinase UCH37; Q9Y5K5; purified proteasome/UCH37, Ub-AMC cleavage fluorescence; inhibition, % (concentration not given with the values); actives 0.33% (n = 330,000);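 active = mean of two replicates above 20%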;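 also: 0% = compound-free wells with enzyme and 100% = wells lacking proteasome; stock transfer was 100 nL into about 20 µL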
Target sequence (Q9Y5K5 whole entry, looked up): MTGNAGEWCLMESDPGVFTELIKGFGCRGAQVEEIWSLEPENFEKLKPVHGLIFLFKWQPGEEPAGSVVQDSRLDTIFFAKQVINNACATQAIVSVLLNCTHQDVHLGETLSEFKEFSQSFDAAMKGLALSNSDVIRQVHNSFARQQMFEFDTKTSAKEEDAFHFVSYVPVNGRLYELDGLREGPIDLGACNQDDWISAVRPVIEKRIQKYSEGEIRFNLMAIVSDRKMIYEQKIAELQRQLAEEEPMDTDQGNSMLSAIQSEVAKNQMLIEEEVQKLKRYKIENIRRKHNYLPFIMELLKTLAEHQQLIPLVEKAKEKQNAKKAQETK
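assay system = human UCH37 enzyme supplied as purified proteasome complex | amount = proteasome at 0.15 nM in the dispensed enzyme solution | schedule = 30 min compound-proteasome preincubation then 25 min substrate reaction, room temperature | measured by = fluorescence, ex 355 nm, em 460 nm | benchmarks = no-proteasome wells (full inhibition) and compound-free wells (no inhibition)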
FGF22 binding – shifts melting point of recombinant human FGF22; Q9HCT0; recombinant FGF22 thermal shift, SYPRO orange fluorescence; percent of sucrose octasulfate shift, DMSO zero; calls only at 9.99 µM; actives 1.5% (n = 340,000);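 active = melting point raised past a set limit in the mean and every replicate; three in four hits are not shown here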
Target sequence (Q9HCT0 whole entry, looked up): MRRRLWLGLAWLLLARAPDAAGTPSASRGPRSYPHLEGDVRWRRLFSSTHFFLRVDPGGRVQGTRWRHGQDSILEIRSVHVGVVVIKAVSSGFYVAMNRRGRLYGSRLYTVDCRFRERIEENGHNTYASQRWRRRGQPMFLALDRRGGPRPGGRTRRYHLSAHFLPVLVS
AF4-AF9 inh – MLL-AF4/AF9 protein interaction inhibition; AlphaScreen, biotin-AF4 peptide binding to FLAG-AF9; inhibition, % at 10 µM; actives 0.47% (n = 350,000); P42568;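 active = every replicate reaching a set inhibition limit, whatever the replicate mean, cut at about 25% in these data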;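 also: 0% = plate neutral control median and 100% = total signal loss; the record names both 10 and 1 µM as test concentration; the first replicate is given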
Target sequence (P42568 whole entry, looked up): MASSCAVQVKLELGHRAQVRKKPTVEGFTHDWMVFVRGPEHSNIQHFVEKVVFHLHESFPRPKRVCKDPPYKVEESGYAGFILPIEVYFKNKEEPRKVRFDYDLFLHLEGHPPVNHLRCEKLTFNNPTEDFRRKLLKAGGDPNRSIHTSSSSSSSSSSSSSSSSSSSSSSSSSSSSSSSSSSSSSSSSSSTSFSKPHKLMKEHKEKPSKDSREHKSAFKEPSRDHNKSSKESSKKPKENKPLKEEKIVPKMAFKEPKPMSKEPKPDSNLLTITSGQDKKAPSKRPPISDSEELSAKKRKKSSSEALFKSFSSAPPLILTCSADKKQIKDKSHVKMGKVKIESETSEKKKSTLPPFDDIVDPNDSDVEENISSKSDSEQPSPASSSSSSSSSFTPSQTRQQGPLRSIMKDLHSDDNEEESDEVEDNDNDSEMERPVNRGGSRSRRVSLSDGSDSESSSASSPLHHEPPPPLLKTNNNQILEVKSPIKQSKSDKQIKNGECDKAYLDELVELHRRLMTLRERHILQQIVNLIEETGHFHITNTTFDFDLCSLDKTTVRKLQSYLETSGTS
Beta apoptosis – blocks beta cell apoptosis | INS-1E cytokine-induced death, ATP luminescence, 48 h; percent of positive-control rescue, neutral wells zero | protection from apoptosis, % (test concentration not listed) | actives 0.8% (n = 300,000);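 active = all replicates at 75% or more, or half of them and the mean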;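 also: 0% = cytokine-treated negative control wells and 100% = positive control rescue; higher means more ATP so stronger rescue from cytokine killing; wells of about 40 µL received 100 nL stock; the first replicate is given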
rRNA inh HTS – inhibitors of bacterial rRNA selective over humanized ribosomes; E. coli WT GFP vs humanized-ribosome RFP mutants, fluorescence, 24 h; stronger effect = lower value; DMSO median 0, no signal -100; GFP signal change (wild-type ribosome), % (test concentration not listed); actives 1.6% (n = 350,000); AID 720706;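 active = significant combined selectivity score with lowered wild-type GFP, culture density cut under 30%, mutant RFP and density less affected; inactive = any of these conditions unmet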; also: one replicate is shown; some compounds called inactive have numbers as strong as hits
rRNA inh HTS OD600 – recorded beside rRNA inh HTS, whose call it bears; OD600 change, %; measured here: OD600 growth;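 optical density of the mix in the first replicate; 0 = DMSO median and -100 = no signal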
rRNA inh HTS RFP – further read-out of rRNA inh HTS, marked with its call; RFP signal change, %; measured here: RFP humanized mutant strains;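 first replicate; 0 = DMSO median and -100 = no signal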
An asterisk follows results filed as active.

What do the screens show for `C#CCOCCOCCOCCNc1nc(N2CCN(C(=O)Cn3cc(CCCN=C(N)N)nn3)CC2)nc(N2CCN(C(=O)[C@H]([C@@H](C)CC)n3cc(CCC(=O)O)nn3)CC2)n1`?
T cruzi repl: -10; Bfl-1 A1 inh: 0.3; UCH37 DUB inh: 0.7; FGF22 binding: inactive; AF4-AF9 inh: -3.4; Beta apoptosis: -4; rRNA inh HTS: 10; rRNA inh HTS OD600: 19; rRNA inh HTS RFP: -6.9

What do the screens show for `Cc1nc(-c2ccc(C(=O)Nc3cc(S(N)(=O)=O)ccc3C)cc2)cs1`?
T cruzi repl: 1; Bfl-1 A1 inh: -0.6; E coli growth: 0.66; UCH37 DUB inh: 2.7; FGF22 binding: inactive; AF4-AF9 inh: -5.6; Beta apoptosis: 0; rRNA inh HTS: -15; rRNA inh HTS OD600: -1; rRNA inh HTS RFP: 0.7

What do the screens show for `CC(=O)Nc1sc2c(c1C(c1ccccn1)N1CCN(C)CC1)CCCC2` (centres undefined)?
T cruzi repl: -2; Bfl-1 A1 inh: 0.9; E coli growth: 0.67; UCH37 DUB inh: 5.6; FGF22 binding: inactive; AF4-AF9 inh: -1.9; Beta apoptosis: 0; rRNA inh HTS: 12; rRNA inh HTS OD600: 12; rRNA inh HTS RFP: -0.2

What do the screens show for `O=C(c1ccc(Cl)c(S(=O)(=O)N2CCCCCC2)c1)N1CCCC1`?
T cruzi repl: -9; Bfl-1 A1 inh: -0.5; E coli growth: 0.68; UCH37 DUB inh: -2.5; FGF22 binding: inactive; AF4-AF9 inh: 2.1; Beta apoptosis: -5; rRNA inh HTS: -1; rRNA inh HTS OD600: 1; rRNA inh HTS RFP: -2.9

What do the screens show for `O=c1c2cccnc2[nH]c(=S)n1CCC1=CCCCC1`?
T cruzi repl: 0; Bfl-1 A1 inh: 0.6; E coli growth: 0.73; UCH37 DUB inh: 3.0; Beta apoptosis: 3

What do the screens show for `COc1ccc(C(=O)NC(C)c2ccc(-n3ccnc3)cc2)cc1S(=O)(=O)N1CCOCC1` (centres undefined)?
E coli growth: 0.68; UCH37 DUB inh: -0.2; FGF22 binding: inactive; AF4-AF9 inh: 5.1; rRNA inh HTS: -2; rRNA inh HTS OD600: 0; rRNA inh HTS RFP: -1.7

Results for COc1ccc(N2C(=O)NC(=O)C2=O)cc1 ?
T cruzi repl: -8; Bfl-1 A1 inh: -0.3; E coli growth: 0.7; UCH37 DUB inh: 2.0; FGF22 binding: inactive; AF4-AF9 inh: -0.2; Beta apoptosis: 2; rRNA inh HTS: 6; rRNA inh HTS OD600: 1; rRNA inh HTS RFP: -1.0

What do the screens show for `Cc1[nH]c2c(C)cccc2c1CCNC(=O)c1ccc2c(c1[N+](=O)[O-])C(=O)c1ccccc1C2=O`?
T cruzi repl: 21; Bfl-1 A1 inh: -0.6; E coli growth: 0.75; UCH37 DUB inh: 3.2; Beta apoptosis: -7

What do the screens show for `COC(=O)c1cc(C(=O)OC)cc(N2C(=O)CC(NNC(=O)c3ccc(C)cc3)C2=O)c1` (centres undefined)?
T cruzi repl: -10; Bfl-1 A1 inh: 0.6; E coli growth: 0.71; UCH37 DUB inh: -0.4; Beta apoptosis: -15

What do the screens show for `CNC(=S)N(Cc1ccc(OC)cc1)C1CC(=O)N(c2ccc(OC)cc2)C1=O` (centres undefined)?
Bfl-1 A1 inh: -0.3; E coli growth: 0.7; UCH37 DUB inh: 2.4; Beta apoptosis: 3

What do the screens show for `COC(=O)c1ccc(N2C(=O)C3C4C=CC(CC4)C3C2=O)cc1` (centres undefined)?
T cruzi repl: -7; Bfl-1 A1 inh: 0.6; E coli growth: 0.64; UCH37 DUB inh: 0.8; FGF22 binding: inactive; AF4-AF9 inh: -0.7; Beta apoptosis: 0; rRNA inh HTS: 3; rRNA inh HTS OD600: -1; rRNA inh HTS RFP: -2.1

How did COc1ccccc1N1CCN(C(=O)c2cccc(N3C(=O)NC4CC3(C)Oc3c(OC)cccc34)c2)CC1 (centres undefined) do in these assays?
T cruzi repl: -14; Bfl-1 A1 inh: 0.2; E coli growth: 0.7; UCH37 DUB inh: 3.8; FGF22 binding: inactive; AF4-AF9 inh: -2.7; Beta apoptosis: -4; rRNA inh HTS: 1; rRNA inh HTS OD600: 4; rRNA inh HTS RFP: -0.5

Among those listed so far, these contain an NH in an aromatic ring.
What do the screens show for `O=c1c2cccnc2[nH]c(=S)n1CCC1=CCCCC1`?
T cruzi repl: 0; Bfl-1 A1 inh: 0.6; E coli growth: 0.73; UCH37 DUB inh: 3.0; Beta apoptosis: 3

What do the screens show for `Cc1[nH]c2c(C)cccc2c1CCNC(=O)c1ccc2c(c1[N+](=O)[O-])C(=O)c1ccccc1C2=O`?
T cruzi repl: 21; Bfl-1 A1 inh: -0.6; E coli growth: 0.75; UCH37 DUB inh: 3.2; Beta apoptosis: -7

Other structures:
How did CCCSC1=C(C#N)C(c2cccs2)C(C(=O)Nc2ccccc2)=C(C)N1 (centres undefined) do in these assays?
T cruzi repl: 41; Bfl-1 A1 inh: 0.2; UCH37 DUB inh: -2.0; Beta apoptosis: 9

What do the screens show for `Cc1ccc(C(C)NC(=S)NC2CCCCC2)cc1C` (centres undefined)?
T cruzi repl: -5; Bfl-1 A1 inh: 0.7; FGF22 binding: inactive; AF4-AF9 inh: -0.3; Beta apoptosis: 18; rRNA inh HTS: -58; rRNA inh HTS OD600: -77; rRNA inh HTS RFP: -16

How did COCCCn1c(C(=O)NCCC2=CCCCC2)cc2c(=O)n3cccc(C)c3nc21 do in these assays?
T cruzi repl: 32; Bfl-1 A1 inh: -0.6; E coli growth: 0.71; UCH37 DUB inh: -367; FGF22 binding: inactive; AF4-AF9 inh: 0.1; Beta apoptosis: 3; rRNA inh HTS: 13; rRNA inh HTS OD600: 23; rRNA inh HTS RFP: 2.7

How did Nc1ccc(Oc2ccc3c(c2)OCO3)cc1 do in these assays?
T cruzi repl: 2; Bfl-1 A1 inh: -0.1; E coli growth: 0.69; UCH37 DUB inh: 1.7; FGF22 binding: inactive; AF4-AF9 inh: 2.5; Beta apoptosis: 2; rRNA inh HTS: -3; rRNA inh HTS OD600: -5; rRNA inh HTS RFP: 2.2

Results for Cc1ccccc1NC(=O)CN1CCC(n2nnc3ccccc32)CC1 ?
T cruzi repl: 15; Bfl-1 A1 inh: -0.1; E coli growth: 0.68; UCH37 DUB inh: 1.9; Beta apoptosis: -3

Results for O=C(NCCOc1ccccc1)c1cc([N+](=O)[O-])ccc1N1CCOCC1 ?
Bfl-1 A1 inh: 0.5; E coli growth: 0.69; UCH37 DUB inh: 12; FGF22 binding: inactive; AF4-AF9 inh: 4.4; Beta apoptosis: 18; rRNA inh HTS: -7; rRNA inh HTS OD600: -8; rRNA inh HTS RFP: -1.7

How did O=S(=O)(Nc1ccccc1N1CCOCC1)c1ccccc1C(F)(F)F do in these assays?
Bfl-1 A1 inh: 0.0; E coli growth: 0.7; UCH37 DUB inh: 2.0; FGF22 binding: inactive; AF4-AF9 inh: 1.3; Beta apoptosis: -6; rRNA inh HTS: 0; rRNA inh HTS OD600: -16; rRNA inh HTS RFP: 1.8

What do the screens show for `CCCCNC(=O)NCC(=O)Nc1ccc(F)c(F)c1`?
T cruzi repl: -3; Bfl-1 A1 inh: 1.4; E coli growth: 0.69; UCH37 DUB inh: -0.2; Beta apoptosis: -8

Results for CCn1c(=O)c(=O)[nH]c2cc(C(=O)NC3CC3)ccc21 ?
T cruzi repl: -8; Bfl-1 A1 inh: -0.1; E coli growth: 0.64; UCH37 DUB inh: -0.7; Beta apoptosis: -9

How did Cc1cc(C)c2c(=O)[nH]c(SCC(=O)N(C)C)nc2n1 do in these assays?
T cruzi repl: -1; Bfl-1 A1 inh: 0.1; E coli growth: 0.71; UCH37 DUB inh: -19; FGF22 binding: inactive; AF4-AF9 inh: 2.5; Beta apoptosis: -4; rRNA inh HTS: 5; rRNA inh HTS OD600: 8; rRNA inh HTS RFP: -4.1

What do the screens show for `Cc1[nH]c(C)c(S(=O)(=O)N2c3ccccc3CC2C)c1C(=O)N1CCCCC1` (centres undefined)?
T cruzi repl: -2; Bfl-1 A1 inh: 1.9; E coli growth: 0.72; UCH37 DUB inh: -0.3; FGF22 binding: inactive; AF4-AF9 inh: 3.2; Beta apoptosis: -2; rRNA inh HTS: 1; rRNA inh HTS OD600: -16; rRNA inh HTS RFP: 0.7

What do the screens show for `CNC(=S)NNC(=O)Cc1ccc(OC)cc1`?
T cruzi repl: -2; Bfl-1 A1 inh: -0.1; E coli growth: 0.65; UCH37 DUB inh: 1.6; FGF22 binding: inactive; AF4-AF9 inh: 1.6; Beta apoptosis: 1; rRNA inh HTS: 15; rRNA inh HTS OD600: 5; rRNA inh HTS RFP: 2.8

Results for Cn1ncc([N+](=O)[O-])c1C(=O)Nc1ccn(Cc2ccccc2F)n1 ?
T cruzi repl: -20; Bfl-1 A1 inh: -0.1; E coli growth: 0.69; UCH37 DUB inh: 3.6; FGF22 binding: inactive; AF4-AF9 inh: 6.5; Beta apoptosis: -2; rRNA inh HTS: 2; rRNA inh HTS OD600: 13; rRNA inh HTS RFP: -1.4

Results for CCn1c(SCC(=O)c2ccc(Cl)cc2)nnc1-c1ccoc1C ?
T cruzi repl: 6; Bfl-1 A1 inh: 1.2; E coli growth: 0.71; UCH37 DUB inh: 0.5; Beta apoptosis: -7

Results for COc1cc(C(=O)NCCc2cn3ccccc3n2)cc(OC)c1OC ?
T cruzi repl: -1; Bfl-1 A1 inh: -0.3; E coli growth: 0.7; UCH37 DUB inh: -1.7; FGF22 binding: inactive; AF4-AF9 inh: -8.3; Beta apoptosis: -10; rRNA inh HTS: 3; rRNA inh HTS OD600: -11; rRNA inh HTS RFP: -4.9

How did CC(=O)NC1C(=O)N=C(SCC(=O)Nc2c(C)cccc2C)NC1=O (centres undefined) do in these assays?
T cruzi repl: -7; Bfl-1 A1 inh: 1.4; E coli growth: 0.7; UCH37 DUB inh: 3.0; FGF22 binding: inactive; AF4-AF9 inh: -0.6; Beta apoptosis: -11; rRNA inh HTS: 12; rRNA inh HTS OD600: 2; rRNA inh HTS RFP: 1.1

How did CC(=O)c1ccc(S(=O)(=O)NCc2ccc(C(=O)N(C)CC(=O)Nc3cccc(F)c3)cc2)cc1 do in these assays?
T cruzi repl: 2; Bfl-1 A1 inh: -0.3; E coli growth: 0.67; UCH37 DUB inh: 1.3; FGF22 binding: inactive; AF4-AF9 inh: 0.2; Beta apoptosis: 0; rRNA inh HTS: 0; rRNA inh HTS OD600: -5; rRNA inh HTS RFP: -1.5

How did COc1ccc(NC(=O)CN2CCC(n3c(C)nc4cc(F)ccc43)CC2)c(OC)c1 do in these assays?
T cruzi repl: 17; Bfl-1 A1 inh: 0.5; E coli growth: 0.68; UCH37 DUB inh: 0.0; Beta apoptosis: 3

Not all compounds are listed; count on the stated rates, not on these rows.
